# Cruzain Triton: qHTS Assay for Promiscuous and Specific Inhibitors of Cruzain (with detergent); hit rate 0.43% among 200,000; AID 1478, 2009; Potency, µM, for inactives: max response, negative = inhibition, most hits filed as inhibitors; purified cruzain, Z-FR-AMC fluorescence, 0.01% Triton; Cruzipain (Trypanosoma cruzi), P25779;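 also: plate controls were neutral wells for no effect and buffer without enzyme for full effect; nearly all actives have a fitted effect of over 40% in size; top concentration of the series not given in the record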
# Target sequence (P25779 123-467 limits assumed): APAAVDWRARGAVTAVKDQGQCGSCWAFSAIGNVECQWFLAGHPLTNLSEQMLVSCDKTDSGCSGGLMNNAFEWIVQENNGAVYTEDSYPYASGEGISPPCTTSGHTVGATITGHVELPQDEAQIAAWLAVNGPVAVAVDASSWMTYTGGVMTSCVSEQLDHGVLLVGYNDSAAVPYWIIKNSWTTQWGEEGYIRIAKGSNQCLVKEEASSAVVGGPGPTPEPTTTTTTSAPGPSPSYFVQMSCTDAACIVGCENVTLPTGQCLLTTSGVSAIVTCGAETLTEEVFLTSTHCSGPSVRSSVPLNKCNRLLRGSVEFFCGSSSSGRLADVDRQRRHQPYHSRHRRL
#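 Compounds were screened in titration against cruzain (1.5 nM) with 0.01% Triton X-100 to counter colloidal aggregation. Activity was the AMC fluorescence increase over 60 s after adding 2 uM Z-FR-AMC at pH 5.5.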
# RE007 growth inh: qHTS Assay for Inhibitors of the HIV-1 protein Vpr | hit rate 0.21% among 360,000 | Potency, µM (doses to about 92.2 µM), without a hit: at the top dose activity change, negative = less growth | S. pombe RE007 Vpr strain, BacTiter-Glo ATP luminescence, 24 h; control for the full effect not named in the record; active = well fitted falling curve with a large enough effect; inconclusive = small, poorly fitted or top-dose-only effect; inactive = no such curve, though single readings can be large or run the other way;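 also: % is scaled to controls: 0 for no effect and ±100 for the full control effect; nearly all actives have a fitted effect of over 50% in size; the assay follows cell death caused by Vpr and the record does not say whether a fall means rescue or toxicity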
#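 Fission yeast RE007 carrying one integrated HIV-1 vpr copy, seeded at OD 0.01 in PMG+AL medium with 23 nL pinned compound. Grown 24 h at 30 degrees; viability read by BacTiter-Glo luminescence after 5 min.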
# StopGo reporter: High Throughput Screening for Foot and Mouth Disease Virus Antivirals; hit rate 1.2% among 410,000; Potency, µM (highest dose often 57.9 µM), inactives show at the highest dose signal change, negative = less light; human cells with a luciferase reporter of 2A StopGo recoding; control for the full effect not named in the record; active = well fitted falling curve with a large enough effect; inconclusive = small, poorly fitted or top-dose-only effect; inactive = no such curve, though single readings can be large or run the other way; tested in HEK293T cells; also: % is scaled to controls: 0 for no effect and ±100 for the full control effect; nearly all actives have a fitted effect of over 45% in size; luciferase light after 4 h
# Cruzain inh noDet: qHTS Assay for Promiscuous and Specific Inhibitors of Cruzain (without detergent). Cruzipain (Trypanosoma cruzi), P25779. purified cruzain, Z-FR-AMC fluorescence, no detergent. Potency, µM, for the others: max response, negative = inhibition, usual class: inhibitors. hit rate 2.3% among 200,000;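 also: plate controls were enzyme without inhibitor for no effect and buffer without enzyme for full effect; nearly all actives have a fitted effect of over 40% in size; top concentration of the series not given in the record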
#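 Purified cruzain at 1.5 nM, pre-incubated 15 min with compound at room temperature in 100 mM sodium acetate pH 5.5, 5 mM DTT, 0.00005% Triton X-100. Reaction started with 2 uM Z-FR-AMC; AMC fluorescence increase over 60 s gives rate.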
# NS1 inh: qHTS Assay for Inhibitors of Influenza NS1 Protein Function | S. cerevisiae slowed by influenza A NS1, growth recovery by OD600 | Potency, µM (highest dose often 46.1 µM), for inactives: at the highest dose activity, positive = more growth | hit rate 0.4% among 270,000 | AID 2326, 2010; active means well fitted rising curve with a large enough effect; inconclusive means small, poorly fitted or top-dose-only effect; inactive means no such curve, though single readings can be large or run the other way; also: nearly all actives have a fitted effect of over 50% in size
#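 Growth recovery, yeast-based: influenza A NS1 expressed in S. cerevisiae causes slow growth, and suppressors are detected by OD600. The parent strain without NS1 is used as positive control.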
# Lassa entry inh: qHTS for Inhibitors of binding or entry into cells for Lassa Virus; Potency, µM (highest dose often 37.9 µM), for inactives: top-dose activity change, negative = inhibition, most hits filed as inhibitors; AID 540256, 2011; Lassa virus pseudotype entry inhibition, cell reporter; control for the full effect not named in the record; hit rate 1.2% among 300,000; active means well fitted inhibition curve with a large enough effect; inconclusive means small, poorly fitted or top-dose-only effect, or effect the other way; inactive means flat fitted curve, though single readings scatter; tested in HEK293 cells; also: % is scaled to controls: 0 for no effect and ±100 for the full control effect; nearly all actives have a fitted effect of over 50% in size; luciferase read-out
# SARS PLP yeast: qHTS of Yeast-based Assay for SARS-CoV PLP; S. cerevisiae expressing SARS-CoV PLpro, growth rescue; control for the full effect not named in the record; Potency, µM (top dose mostly 32.9 µM), for inactives: top-dose activity, positive = growth rescue; hit rate 0.19% among 330,000; active means well fitted rising curve with a large enough effect; inconclusive means small, poorly fitted or top-dose-only effect; inactive means no such curve, though single readings can be large or run the other way; also: 0% is about no effect; nearly all actives have a fitted effect of over 55% in size; growth read by luminescence after 48 h
# Marburg entry inh: qHTS for inhibitors of binding or entry into cells for Marburg Virus; Marburg virus pseudotyped entry inhibition, cell reporter; control for the full effect not named in the record; about a third of the inactives were read at about 46 µM; Potency, µM (top dose mostly 37.8 µM), for inactives: at the top dose activity change, negative = inhibition, usual class: inhibitors; hit rate 1.8% among 300,000; AID 540276, 2011; active = well fitted inhibition curve with a large enough effect; inconclusive = small, poorly fitted or top-dose-only effect, or effect the other way; inactive = flat fitted curve, though single readings scatter; tested in HEK293 cells; about a fifth of its hits are not listed in these tables; also: % is scaled to controls: 0 for no effect and ±100 for the full control effect; luciferase read-out
# An asterisk follows results filed as active; ? = inconclusive; . = no result given; & = joins results of further samples; [ ] = another dose, or the depositor's remark. Unless noted, calls follow the shape of the dose curve; as a rule, active = well fitted curve in the direction sought with a large enough effect; inconclusive = small, poorly fitted or top-dose-only effect, or another doubt; inactive = no such curve, though single readings can be large; an effect the other way counts as inactive or inconclusive. Potency is read from the fitted curve at half-maximal effect.
SMILES,Cruzain Triton,RE007 growth inh,StopGo reporter,Cruzain inh noDet,NS1 inh,Lassa entry inh,SARS PLP yeast,Marburg entry inh
Cc1cc(C)c2cc(CN(CC3CCCO3)S(=O)(=O)c3ccc4c(c3)OCCO4)c(=O)[nH]c2c1 (stereo not given),-0.6%,-8%,.,?,5%,5%,2%,?
O=C(N/C(=C\c1ccco1)C(=O)N1CCOCC1)c1ccco1,.,2%,3%,.,5%,15%,1%,6%[46.1 µM]
Cc1cccc(C)c1NC(=S)N(CCc1ccncc1)C(C)C,.,0%,-18%,.,.,16%[46.1 µM],-2%,20%[46.1 µM]
Cc1nn(-c2ccccc2)c(C)c1NC(=O)COc1ccc(Br)cc1Cl,-13%,-4%,22µM*,?,1%,?,-1%,-57%
CC1(C)Cc2c(sc(NC(=O)c3ccc(Br)o3)c2C#N)CO1,-1.0%,-9%,-10%,-6%,-6%,?,-4%,?
COc1ccc([N+](=O)[O-])cc1NC(=O)COC(=O)C=C(C)C,.,-17%,-21%,.,-4%,13%[46.1 µM],0%,17%[46.1 µM]
O=C(CSc1nnc2ccc(-c3cccnc3)nn12)Nc1ccccc1F,.,-13%,-11%,.,.,26%,0%,21%
COc1ccccc1NC(=O)CSc1n[nH]c(Cc2ccccc2)n1,.,-14%,-2%,.,1%,-24%,8%,2%
COc1ccc2c(=O)c(-c3ccccc3C)c(C)oc2c1,0.0%,8%,?,-4%,-13%,8%,-3%,?
COc1ccc2[nH]c(=O)c(CN(CCO)S(=O)(=O)c3ccc4c(c3)OCCO4)cc2c1,0.6%,7%,-18%,7%,-15%,-5%,8%,-10%
O=C(COC(=O)[C@H](Cc1ccccc1)NC(=O)c1cccs1)NC1CCCCC1,-20%,27%,15%,-2%,-27%,8%,26%,1%
CCc1ccc(Nc2oc(C)cc(=O)c2C(C)=O)cc1,-1.2%,2%,43%[activator],-1%,-51%,3%,-6%,2%[46.1 µM]
Cc1cc(Nc2cccc(C(F)(F)F)c2)n2nc(C)nc2n1,-0.9%,-11%,0%,-4%,5%,-5%,1%,?
Cc1nc(SCC(=O)O)n[nH]1,.,-3%,-5%,.,-1%,-2%,0%,1%[46.1 µM]
CC1CC(=O)N(CC(=O)Nc2ccc(F)cc2)c2ccccc2S1(=O)=O (stereo not given),.,13%,-3%,.,1%,25%[46.1 µM],3%,2%[46.1 µM]
Cc1ccc(-c2c(C)sc3ncn(CC(=O)N4CCOCC4)c(=O)c23)cc1C,.,-7%,35%[activator],.,1%,-25%[46.1 µM],0%,?
CC(C)OC(=O)CSc1nnc(-c2ccc(C(C)(C)C)cc2)n1N,0.8%,10%,-16%,-2%,-10%,9%,-1%,?
COc1ccc(OC)c(S(=O)(=O)N2CCC(C(=O)NCc3ccncc3)CC2)c1,.,-3%,-5%,.,12%,2%,2%,-5%[46.1 µM]
Cc1c(Br)cc(C(=O)NCc2ccco2)c(C)c1C,?,-12%,-26%,-12%,-14%,-26%,4%,-29%
CCN(CC)CCC(=O)c1ccc(F)cc1,.,-18%,-3%,.,10%,-3%[46.1 µM],-1%,?
CCc1nnc(NC(=O)CCN(c2ccc(C)cc2)S(=O)(=O)c2ccccc2)s1,-1.1%,2%,-2%,0%,-3%,1%,2%,?
Cn1c(CCN2CCN(c3ccc(F)cc3)CC2)nc2cc(NC(=O)c3ccco3)ccc21,-0.4%,2%,?,-5%,?,0%,-14%,4%
Cc1ccc(N2C(=O)c3ccccc3C2Nc2ccc(S(=O)(=O)N3CCCCC3)cc2)nc1 (stereo not given),0.7%,2%,28%,-14%,-6%,.,-5%,-2%
Cc1ccc(NC(=O)CCSc2nc(-c3ccc4c(c3)OCO4)cc(C(F)(F)F)n2)c(C)c1,-1.8%,.,0%,1%,.,-1%[46.1 µM],.,-6%[46.1 µM]
CCC(=O)OCc1c(C(F)(F)F)nn(C)c1Sc1ccc(F)cc1,-1.2%,4%,-15%,2%,-3%,11%,6%,3%
CC(=O)Nc1ccc(S(=O)(=O)N2CCN(C(=O)N3CCCCC3)CC2)cc1,.,-5%,-8%,.,5%,-10%,0%,-4%
c1ccc(N2CCN(c3ncnc4scc(-c5cccs5)c34)CC2)cc1,-0.8%,5%,-9%,?,8%,-27%,7%,-15%
CCOc1ccc(-c2cc(C(=O)NCCCN3CCCC3)c3ccccc3n2)cc1,.,-1%,32%[activator],.,1%,0%[46.1 µM],1%,?
Cc1oc(-c2ccc(C(F)(F)F)cc2)nc1CN(Cc1ccccn1)C[C@@H]1CCC(=O)N1,.,0%,-18%,.,1%,.,1%,.
CSc1ncccc1C(=O)Nc1ccc(F)c(F)c1F,.,-11%,13%,.,.,-1%,-1%,7%[46.1 µM]
Cc1ccc2c(CN3CCN(c4ccc(Cl)cc4)CC3)cc(=O)oc2c1,-1.5%,.,-8%,-8%,.,5%[46.1 µM],.,8%[46.1 µM]
Cc1nc2c(cc1C(=O)N/N=C/c1ccc(O)c(O)c1)c(=O)n(C)c(=O)n2C,-5.5%,2%,-25%,8%,26%,1%,18%,25%
CCOC(=O)c1ccc(N2CCN(c3cc(C)ccc3C)CC2)c(N)c1,.,-30%,-17%,.,20%,-18%,0%,?
COc1ccc(NC(=O)CCc2ccc(OC)c(OC)c2)cn1,.,10%,2%,.,6%,14%,0%,2%[46.1 µM]
COc1ccc(NC(=O)C/C(C)=N/NC(=O)c2cnccn2)cc1,.,-4%,6%,.,-3%,-4%[46.1 µM],-1%,?
O=C(c1cc(-c2ccc(F)cc2)on1)N1CCOCC1,.,1%,23%,.,4%,.,-1%,?
CCc1ccc(OCC(O)CN2CCC(CN3C(=O)c4cccc5cccc(c45)C3=O)CC2)cc1 (stereo not given),-9.3%,-7%,-28%,-1%,6%,?,-7%,?
C=CCNC(=S)/C(=C(/[O-])c1ccc([N+](=O)[O-])cc1)[n+]1ccccc1,.,18%,-3%,.,12%,14%,6%,-2%[46.1 µM]
O=C(NCCCN1CCOCC1)c1cc2c(s1)CCCC2,3.7%,-6%,21%,4%,7%,?,1%,?
COc1ccccc1N1CCN(C(=O)C(CCSC)NS(=O)(=O)c2ccc3c(c2)oc(=O)n3C)CC1 (stereo not given),1.0%,.,-8%,-7%,.,0%[46.1 µM],.,.
O=C(Nc1ccc(-c2noc(-c3ccccc3F)n2)cc1)c1cccs1,0.5%,0%,29%,20µM*,-8%,7%,4%,-24%
CC(=O)c1cccc(NC(=O)CN2C(=O)c3ccccc3Sc3ncccc32)c1,-4.8%,.,40µM*,-16%,.,-11%[46.1 µM],.,.
N/C(=N\OC(=O)CCCN1C(=O)c2ccccc2C1=O)c1ccccn1,.,3%,-10%,.,.,?,2%,5%[46.1 µM]
Cc1cccc(NC(=S)/N=C(\N)Nc2nc(C)c3cc(C)ccc3n2)c1,-9.1%,-6%,6%,-81%,?,-15%,-4%,?
Cc1ccc(C(=O)Oc2ccc(C(=S)N3CCOCC3)cc2)cc1,.,23%,4%,.,-7%,.,1%,.
COC(=O)/C(=C\Nc1cccc(Cl)c1C)c1ncc(C(F)(F)F)cc1Cl,-4.1%,18%,-16%,?,7%,3%,-8%,?
Cc1nc(SCC(=O)NCc2cccs2)nc(C)c1C,.,-14%,-6%,.,.,-5%,0%,-15%[46.1 µM]
Cc1ccc(NC(=O)C(C)OC(=O)/C=C/c2ccccc2)cc1 (stereo not given),.,15%,-13%,.,11%,?,-4%,13%[46.1 µM]

# 3 entries from above, as labelled records:
SMILES: Cc1nc(SCC(=O)NCc2cccs2)nc(C)c1C
  Cruzain Triton: .; RE007 growth inh: -14%; StopGo reporter: -6%; Cruzain inh noDet: .; NS1 inh: .; Lassa entry inh: -5%; SARS PLP yeast: 0%; Marburg entry inh: -15%[46.1 µM]

SMILES: Cc1ccc(NC(=O)C(C)OC(=O)/C=C/c2ccccc2)cc1 (stereo not given)
  Cruzain Triton: .; RE007 growth inh: 15%; StopGo reporter: -13%; Cruzain inh noDet: .; NS1 inh: 11%; Lassa entry inh: ?; SARS PLP yeast: -4%; Marburg entry inh: 13%[46.1 µM]

SMILES: Cc1ccc(C(=O)Oc2ccc(C(=S)N3CCOCC3)cc2)cc1
  Cruzain Triton: .; RE007 growth inh: 23%; StopGo reporter: 4%; Cruzain inh noDet: .; NS1 inh: -7%; Lassa entry inh: .; SARS PLP yeast: 1%; Marburg entry inh: .

# Further results.
SMILES,Cruzain Triton,RE007 growth inh,StopGo reporter,Cruzain inh noDet,NS1 inh,Lassa entry inh,SARS PLP yeast,Marburg entry inh
NC(CSC(c1ccccc1)(c1ccccc1)c1ccccc1)C(=O)O (stereo not given),.,-17%,-10%,.,.,-25%[46.1 µM],.,-28%
O=C(COc1ccc(F)cc1)Nc1nc2c(s1)CCCC2,.,9%,34%[activator],.,-2%,20%,-2%,1%
COc1ccc(-c2c(C#N)c(SCc3c(C)noc3C)nc3c2C(=O)CC(C)(C)C3)cc1,-3.5%,30%,-21%,8%,-1%,14%,-1%,0%
COc1ccccc1NS(=O)(=O)c1cccc(NC(=O)c2cc3ccccc3oc2=O)c1,.,167%,44%[activator],.,11%,0%,0%,-27%[46.1 µM]
NC(=O)c1ccc(N=Cc2c(O)n(Cc3ccco3)c(=O)[nH]c2=O)cc1,.,-18%,-4%,.,7%,.,0%,.
CC1CCN(S(=O)(=O)c2cc3c4c(c2)C(C)C(=O)N4CCC3)CC1 (stereo not given),-2.4%,12%,7%&7%,5%,16%,-8%[46.1 µM],9%,.
CC1CCN(S(=O)(=O)c2cnc(Cl)c(Br)c2)CC1,-0.2%,-6%,-12%,-27%,0%,7%,-17%,-5%

# Screens as filed in PubChem.
